Compound activity from PubChem BioAssay.
FGF22 binding = binders of human FGF22 protein, primary screen, FGF22 synaptogenesis inhibitor project, biophysical, thermal shift, single point; AID 651658, 2012; calls only at 9.99 µM; Fibroblast growth factor 22 (Homo sapiens), Q9HCT0; recombinant FGF22 thermal shift, SYPRO orange fluorescence; percent of sucrose octasulfate shift, DMSO zero; 1.5% of 340,000 active;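 active = melting point raised past a set limit in the mean and every replicate; inconclusive = no clear call; three in four hits are not shown here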
Target sequence (Q9HCT0 whole entry, looked up): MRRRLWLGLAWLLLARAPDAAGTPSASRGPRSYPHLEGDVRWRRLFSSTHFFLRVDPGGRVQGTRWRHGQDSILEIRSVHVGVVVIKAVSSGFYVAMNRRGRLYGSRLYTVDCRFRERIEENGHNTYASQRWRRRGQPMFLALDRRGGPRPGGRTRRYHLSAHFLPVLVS
E coli growth = E. coli growth inhibition, primary screen, OD600. Escherichia coli growth, 23 h; hits give low values. OD600 absorbance (concentration not given with the values). 0.21% of 330,000 active. AID 1053175, 2014;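 active = OD600 absorbance below the run mean of sample wells minus 3.6 SD, in any replicate, cut at about 0.56 in these data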;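 also: stock transfer was 300 nL into about 60 µL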
MLL AF4-AF9 inh = inhibitors of AF4 peptide binding to AF9, primary screen, biochemical, AlphaScreen, biotin-AF4 peptide, FLAG-AF9, single point; 0.47% of 350,000 active; inhibition, % at 10 µM; AID 651704, 2012;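 active = every replicate reaching a set inhibition limit, whatever the replicate mean, cut at about 25% in these data; inconclusive = mean inhibition reaches that limit but some replicates miss it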;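 also: 0% = plate neutral control median and 100% = total signal loss; the record names both 10 and 1 µM as test concentration; the first replicate is given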
Vif TR-FRET = inhibitors of Vif binding to APOBEC3G peptide, primary screen, biochemical, TR-FRET, GST-Vif 1-94, biotin-A3G peptide, dose response retest (AID 1117319); Virion infectivity factor (Human immunodeficiency virus type 1 group M subtype B (isolate …; TR-FRET GST-Vif / biotin-A3G peptide binding; higher % means a stronger effect; test concentration not given here; strong numbers were not always called active; inhibition, %; hits with a dose series show IC50 in µM; 0.57% of 260,000 active;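 active = above the screen mean plus three standard deviations and confirmed in dose response; inconclusive = results disagree or hit not tested in dose response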;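 also: Vif residues 1-94 fused to GST binding biotinylated APOBEC3G peptide 110-148; 0% = full assay without inhibitor and 100% = GST in place of GST-Vif; retest series ran down from 100 µM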
HNF4A DNA FP = change in binding of human HNF4A to DNA, primary screen, biochemical, fluorescence polarization, FITC-DNA. Hepatocyte nuclear factor 4-alpha (Homo sapiens), P41235. 1 h. AID 1224865, 2016. 0.3% of 360,000 active. activity change, % at 10 µM; in the data active = activity change above about 30%, passing the limit was not always enough;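 also: controls were the assay level and a saturating level of protein; the project sought stronger binding though the title names inhibitors; some compounds called inactive have numbers as strong as hits; positive values seem to mean higher polarization but the record does not say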
Target sequence (P41235 whole entry, looked up): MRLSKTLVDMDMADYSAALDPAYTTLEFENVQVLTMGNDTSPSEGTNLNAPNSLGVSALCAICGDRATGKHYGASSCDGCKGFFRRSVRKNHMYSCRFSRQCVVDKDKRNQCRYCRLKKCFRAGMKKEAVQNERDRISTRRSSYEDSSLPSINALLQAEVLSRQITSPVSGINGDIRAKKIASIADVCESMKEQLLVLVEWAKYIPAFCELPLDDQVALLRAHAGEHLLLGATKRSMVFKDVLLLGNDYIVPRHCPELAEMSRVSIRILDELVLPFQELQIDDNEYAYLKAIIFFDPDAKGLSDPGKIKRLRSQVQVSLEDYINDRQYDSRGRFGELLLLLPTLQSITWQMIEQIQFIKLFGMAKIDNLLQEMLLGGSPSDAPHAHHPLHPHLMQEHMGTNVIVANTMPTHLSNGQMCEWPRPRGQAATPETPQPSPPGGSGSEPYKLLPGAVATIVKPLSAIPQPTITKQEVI
RanGTP-Impb inh = inhibitors of RanGTP-importin-beta interaction, primary screen, biochemical, FRET, CFP-Ran, YFP-importin-beta, homogeneous; Ran GTPase (GTP-bound) - importin-beta complex; cell-free CFP-Ran/YFP-importin-beta FRET ratio; inhibition, % (concentration not given with the values); 1.1% of 300,000 active; AID 2216, 2009;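 active = most replicates above 15%; inconclusive = exactly half above 15%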;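 also: 0% = DMSO wells and 100% = Ran loaded with GDP instead of GTP; wells of about 40 µL received 100 nL stock; the first replicate is given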
UCH37 inh = inhibitors of human UCH37 deubiquitinase, primary screen, biochemical, Ub-AMC cleavage, fluorescence; inhibition, % (test concentration not listed); 0.33% of 330,000 active; purified proteasome/UCH37; AID 588478, 2011; Ubiquitin carboxyl-terminal hydrolase isozyme L5 (Homo sapiens), Q9Y5K5;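 active = mean of two replicates above 20%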;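 also: 0% = compound-free wells with enzyme and 100% = wells lacking proteasome; stock transfer was 100 nL into about 20 µL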
Target sequence (Q9Y5K5 whole entry, looked up): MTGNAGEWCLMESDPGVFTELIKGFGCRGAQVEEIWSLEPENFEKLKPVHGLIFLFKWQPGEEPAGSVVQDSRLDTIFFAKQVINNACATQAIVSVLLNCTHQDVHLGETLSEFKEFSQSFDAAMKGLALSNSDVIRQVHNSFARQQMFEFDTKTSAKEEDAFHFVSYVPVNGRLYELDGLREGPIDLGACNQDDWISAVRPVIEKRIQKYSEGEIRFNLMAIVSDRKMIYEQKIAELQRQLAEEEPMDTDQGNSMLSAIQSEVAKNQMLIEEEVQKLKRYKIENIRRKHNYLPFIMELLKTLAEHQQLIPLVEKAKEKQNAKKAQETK
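Signal – fluorescence, ex 355 nm, em 460 nm · System – Proteasome-bound UCH37 · Input – 0.15 nM proteasome as dispensed · Timing – 30 min preincubation with enzyme, 25 min cleavage at room temperature · Read-out basis – percent inhibition of cleavage signal versus uninhibited and no-proteasome wells · Medium – Tris-HCl pH 7.4 with ATP-MgCl2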
* hit, by the source's call; i = inactive; ? = inconclusive; nt = not tested or not shown; & = joins results of further samples. The list is partial, so the mix of outcomes need not match the whole.

smiles	MLL AF4-AF9 inh	Vif TR-FRET	UCH37 inh	RanGTP-Impb inh	E coli growth	HNF4A DNA FP	FGF22 binding
S=c1[nH]nc(-c2cccnc2)n1/N=C/C=C/c1ccco1	-4.8	3.97µM*	nt	-3.9	nt	-10.1	i
COc1ccc(CCNC(=O)C2CCC(=O)N2Cc2ccccc2Cl)cc1OC (stereo unspecified)	0.8	-7.6%	3.5	-1.7	0.68	3.3	i
O=C1S/C(=C\c2ccccn2)C(=O)N1Cc1ccccc1F	nt	-2.9%	-1.7	0.8	0.713	0.4	nt
O=C(CSc1ccccn1)Nc1cccc(NC(=O)CSc2ccccn2)n1	-1.9	-2.2%	0.0	0.7	0.707	-1.2	i
CC1(C)OC2C(O1)[C@@H](CO)O[C@H]2n1cnc2c(N)ncnc21 (stereo partly specified)	-5.9	nt	2.8	0.4	0.676	6.2	i
O=C(CCc1ccc(S(=O)(=O)NCc2ccccc2)cc1)NCc1ccc2c(c1)OCO2	nt	0.1%	1.7	7.8	0.731	1.0	nt
COc1ccc(C(=O)CNc2ccccc2Br)cc1	-1.0	-4.2%	5.6	-0.7	0.661	2.9	i
O=C(O)c1ccc(Cn2cc(/C=C\[N+](=O)[O-])c3ccccc32)o1	5.0	nt	4.2	-2.9	0.698	-3.8	i
O=C1CN(C(=S)Nc2ccc(OC(F)F)cc2)CCN1	-4.5	nt	-1.0	1.6	0.655	3.0	i
CCOc1ccc(N(CC(=O)OC)S(=O)(=O)c2ccc3c(c2)n(C)c(=O)c(=O)n3C)cc1	-1.5	14.5%	1.7	0.1	0.705	0.2	i
Cc1ccc(CN(C)CCc2ccccn2)cc1	nt	-0.6%	0.7	1.7	0.693	1.1	nt
COc1ccc(-c2cc(C(=O)NCCN3CCOCC3)c3ccccc3n2)cc1	nt	?	-136.4	-5.7	0.756	3.2	nt
CSc1cccc(NC(=O)CN(C)S(=O)(=O)c2ccc(F)cc2)c1	nt	1.3%	1.3	-2.4	0.698	5.6	nt
O=C(COC(=O)C1CC(=O)N(Cc2ccco2)C1)c1ccc(OC(=O)c2ccccc2)cc1 (stereo unspecified)	nt	3.3%	4.1	3.2	0.73	-5.8	nt
Cc1ccccc1-c1nc(CN2CCC(C(=O)NCc3ccco3)CC2)c(C)o1	nt	-6.6%	2.7	0.6	0.69	0.1	nt
COC(=O)/C(=C\Nc1ccc(Oc2ccc(F)cc2F)nc1)NC(=O)c1ccccc1	1.7	nt	6.3	5.6	0.599	0.3	i
CCOc1cc(NC(=O)C2CC2)c(OCC)cc1NC(=O)c1ccccn1	nt	1.0%	-2.2	-1.1	0.764	-1.3	nt
CC1CCN(C(=O)c2ccc(S(=O)(=O)N(C)C)cc2)C(C)C1 (stereo unspecified)	nt	2.2%	0.2	3.8	0.713	-4.6	nt
Cc1ccc(Cl)cc1-c1cc(C(=O)NCc2ccco2)[nH]n1	3.3	nt	nt	nt	nt	4.0	i
CCC(=O)N1c2ccc(S(=O)(=O)CCC(=O)Nc3nccs3)cc2CC1C (stereo unspecified)	nt	2.4%	3.1	-2.3	0.739	0.8	nt
CCN1C(=O)C2(SC(NC(C)=O)=NN2C(C)=O)c2cc(C)ccc21 (stereo unspecified)	nt	17.0%	-1.8	5.8	0.66	0.6	nt
CCNC(=O)C1(C)CCCN(C(=O)c2cc(-c3cccs3)oc2C)C1 (stereo unspecified)	1.6	nt	nt	nt	nt	7.0	i
O=C(COC(=O)CCN1C(=O)C2CC=CCC2C1=O)NCCc1ccc(F)cc1 (stereo unspecified)	-0.7	3.9%	1.1	nt	0.69	3.4	i
O=C(CN1c2ccccc2Sc2ccccc21)NNC(=S)Nc1ccc(Cl)cc1	-2.1	nt	3.4	0.2	0.619	-0.7	i
C=CCn1c(=O)c2ccccc2n2c(SCc3c(C(=O)OCC)oc4ccccc34)nnc12	nt	0.9%	1.1	0.8	0.67	5.5	nt
CCCn1nc(C(=O)NCCN2CCOCC2)c2ccccc2c1=O	nt	30.4%	1.7	?	0.672	2.2	nt
N#Cc1ccc(-c2ccccc2)nc1SCC(=O)c1cccc(Cl)c1	nt	6.6%	-5.8	-11.0	0.724	3.9	nt
CN(C)CCN(C(=O)C1CCN(S(=O)(=O)c2cccs2)CC1)c1nc2c(F)cccc2s1	3.3	-4.3%	6.6	-2.9	0.676	-0.1	i
O=C(O)C1CCC(=O)N1C1c2ccccc2Oc2ccccc21 (stereo unspecified)	0.5	3.6%	-0.5	-2.5	0.743	1.1	i
Cc1ccc(C(=O)Nc2nc(-c3ccccn3)cs2)s1	1.2	1.0%	2.6	nt	0.666	-2.3	i
COc1cccc(N/C(SCc2cccc([N+](=O)[O-])c2)=C(/C#N)C(=O)NCc2cccs2)c1	-46.9	32.7%	6.9	-3.0	0.747	-1.0	i
COc1ccc(-c2ccnc3[nH]n(-c4ccccc4)c(=O)c23)cc1	-2.2	nt	-2.6	-4.9	0.679	0.8	i
COC(=O)c1ccc(C(=O)Nc2ccc3nc(-c4ccncc4)[nH]c3c2)cc1	0.6	-3.8%	8.0	5.3	0.698	4.5	i
Cc1ccccc1C(C)(O)c1cnc(C)n1Cc1ccccc1 (stereo unspecified)	2.7	-3.8%	nt	nt	nt	-1.4	i
CN(C)C(=O)C(Sc1ccc(S(=O)(=O)N2CCCC2)cn1)c1ccccc1 (stereo unspecified)	-0.8	-11.4%	4.0	nt	0.691	2.6	i
COc1cc(N)cc(NC(=O)c2ccncc2)c1	nt	8.2%	-3.3	-0.9	0.754	0.1	nt
Cc1nnc(NCC=Cc2ccccc2)s1	-0.2	nt	nt	nt	nt	-1.1	i
COc1ccc(NC(=O)CN(C)C(=O)c2cccnc2Sc2ccc(C)c(C)c2)cc1	4.2	2.2%	-0.2	5.8	0.674	-7.4	i
CCc1ccc(NC(=O)c2cnc(SC)nc2C)cc1	-2.0	2.4%	2.2	-0.9	0.652	4.8	i
O=S(=O)(c1cccc2nsnc12)N1CCNCC1	0.8	nt	0.3	-1.2	0.679	-1.0	i
CC(C)n1cc(C(=O)c2ccccc2O)cc(C#N)c1=O	-4.1	0.0%	-2.4	-2.2	0.732	3.3	i
CC(Oc1ccc2cc(-c3ccccc3)c(=O)oc2c1)C(=O)NCC1CCC(C(=O)O)CC1 (stereo unspecified)	-0.6	nt	i	0.8	0.799	-2.6	i
CC(C)CN(C(=O)CCC1CCCCC1)c1c(N)n(CC(C)C)c(=O)[nH]c1=O	-0.2	-7.7%	3.5	nt	0.634	-1.6	i
CC(C)c1ccc(NC(=O)CNC(=O)Cn2cnc3ccccc3c2=O)cc1	-3.3	-9.2%	12.8	4.2	0.695	3.2	i
c1ccc(CNc2ncnc3c2cnn3Cc2ccccc2)cc1	6.6	-0.7%	3.9	-0.9	0.723	-0.3	i
COc1cccc(N2CC(C(=O)Nc3c(C)cccc3C)CC2=O)c1 (stereo unspecified)	nt	26.1%	1.5	-0.1	0.701	2.3	nt
CN(CC(=O)Nc1ccccc1Cl)C(=O)CSc1nncs1	?	nt	3.8	nt	0.683	0.2	i
O=C(COc1ccc2ccc(=O)oc2c1)NC1CCS(=O)(=O)C1 (stereo unspecified)	1.3	nt	-26.3	nt	0.669	0.9	i
O=C(O)C(O)c1ccccc1 (stereo unspecified)	0.2&0.9	2.6%	0.2&2.6	-0.9	0.63&0.707&0.645	0.3&1.1	i
COc1cc2c(cc1OC)C(C1(O)CCCCC1)NCC2 (stereo unspecified)	-0.4	21.3%	-71.0	6.4	0.65	2.9	i
COc1ccc(Br)cc1CNC(=O)C1CCCN(S(=O)(=O)N2CC(C)CC(C)C2)C1 (stereo unspecified)	-5.7	-1.7%	1.4	0.2	0.68	-2.3	i
Cc1cc(=O)oc(C)c1C(=O)NCCC(C)C	-8.2	2.8%	19.7	2.2	0.709	2.9	i
Cc1nnc(NC(=O)C2CCN(S(=O)(=O)c3ccc(F)c(F)c3)CC2)o1	-0.6	nt	1.2	nt	0.7	5.2	i
CC(C)(C)N(Cc1cc2ccccc2[nH]c1=O)C(=O)c1cccnc1	nt	-10.1%	0.9	?	0.705	1.4	nt
COc1ccc(C(=O)NNC(=S)NC(=O)C(C)(C)C)cc1	2.1	7.2%	4.0	-0.5	0.597	2.8	i
N#Cc1nc(Cc2ccccc2)oc1NCCCn1ccnc1	-7.7	11.6%	-1.8	1.2	0.696	-4.3	i
CCc1cccc(NC(=O)CCCN2C(=O)C(c3ccccc3)Oc3cccnc32)c1 (stereo unspecified)	2.2	nt	1.7	1.6	0.659	0.5	i
O=C(COc1ccc2c(-c3ccccc3)cc(=O)oc2c1)N1C[C@H]2C[C@@H](C1)c1cccc(=O)n1C2	0.4	nt	nt	nt	nt	3.1	i
O=C(NCCCN=C1NS(=O)(=O)c2ccccc21)c1ccc(S(=O)(=O)N2CCCCC2)cc1	nt	?	0.9	2.3	0.695	3.7	nt
Nn1cc(-c2ccccc2)nc1SCC(=O)N1CCN(S(=O)(=O)c2ccccc2)CC1	nt	-3.8%&-4.4%	5.6	-4.2	0.691	0.4	nt

(cont.)
smiles	MLL AF4-AF9 inh	Vif TR-FRET	UCH37 inh	RanGTP-Impb inh	E coli growth	HNF4A DNA FP	FGF22 binding
CCOC(=O)Cc1c(C)nc2cc(-c3ccc(C(C)(C)C)cc3)[nH]n2c1=O	nt	4.2%	-28.2	9.2	0.74	-1.8	nt
C/C(=N\NC(=S)NC1CCCCC1)c1ccc(Cl)c(Cl)c1	-10.9	-8.2%	nt	-0.3	nt	-2.0	i
CN(c1ccccc1C(=O)Nc1ccc2c(c1)OCCO2)S(C)(=O)=O	nt	18.0%	1.8	-3.8	0.74	0.9	nt
COCCN(Cc1ccccc1)C(=S)Nc1ccc(Cl)cc1	-12.9	-1.0%	1.3	5.3	0.677	0.1	i
